2A StopGo: lowers the luciferase signal of an FMDV 2A StopGo reporter. Potency, µM (top dose mostly 57.9 µM), inactives show top-dose signal change, negative = less light. human cells with a luciferase reporter of 2A StopGo recoding; control for the full effect not named in the record. 410,000 tested, 1.2% active; active = well fitted falling curve with a large enough effect; inconclusive = small, poorly fitted or top-dose-only effect; inactive = no such curve, though single readings can be large or run the other way; tested in HEK293T cells; further: on the % scale 0 is the no-effect control and ±100 the full control effect; nearly all actives have a fitted effect of over 45% in size; luciferase light after 4 h
Cruzain inh Det: blocks cruzain activity in presence of Triton detergent | Potency, µM, for inactives: max response, negative = inhibition, actives largely listed as inhibitors | P25779 | 200,000 tested, 0.43% active | purified cruzain, Z-FR-AMC fluorescence, 0.01% Triton;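 further: plate controls were neutral wells for no effect and buffer without enzyme for full effect; nearly all actives have a fitted effect of over 40% in size; top concentration of the series not given in the record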
Target sequence (P25779 123-467 limits assumed): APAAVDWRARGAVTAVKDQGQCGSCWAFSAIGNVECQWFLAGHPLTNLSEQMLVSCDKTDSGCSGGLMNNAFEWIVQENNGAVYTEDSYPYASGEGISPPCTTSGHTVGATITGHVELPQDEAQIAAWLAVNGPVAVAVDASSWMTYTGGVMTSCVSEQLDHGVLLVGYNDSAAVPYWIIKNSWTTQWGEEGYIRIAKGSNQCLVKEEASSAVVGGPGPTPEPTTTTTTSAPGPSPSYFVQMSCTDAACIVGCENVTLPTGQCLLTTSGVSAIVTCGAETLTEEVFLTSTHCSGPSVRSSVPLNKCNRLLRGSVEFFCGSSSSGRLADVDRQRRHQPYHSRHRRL
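Read-out: AMC fluorescence (360 nm excitation, 450 nm emission), four reads over 2 min, first-to-third difference used. Conditions: cruzain 1.5 nM, Z-FR-AMC 2 uM, pH 5.5 acetate, 5 mM DTT, 0.01% Triton X-100.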
NS1 inh: inhibitors of influenza NS1 protein function; S. cerevisiae slowed by influenza A NS1, growth recovery by OD600; Potency, µM (top dose mostly 46.1 µM), for inactives: at the top dose activity, positive = more growth; 270,000 tested, 0.4% active; active means well fitted rising curve with a large enough effect; inconclusive means small, poorly fitted or top-dose-only effect; inactive means no such curve, though single readings can be large or run the other way; further: nearly all actives have a fitted effect of over 50% in size
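Read-out: OD600 growth recovery of NS1-expressing budding yeast. Cells grown overnight at 30C in -URA glucose medium, washed, resuspended and diluted 1:100 in 2% galactose assay medium, pH 6.0. Same strain lacking NS1 served as positive control.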
RE007 growth inh: less growth of the S. pombe RE007 Vpr strain; 360,000 tested, 0.21% active; Potency, µM (titrated, usually from 92.2 µM), without a hit: top-dose activity change, negative = less growth; AID 651644; S. pombe RE007 Vpr strain, BacTiter-Glo ATP luminescence, 24 h; control for the full effect not named in the record; active = well fitted falling curve with a large enough effect; inconclusive = small, poorly fitted or top-dose-only effect; inactive = no such curve, though single readings can be large or run the other way;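 further: on the % scale 0 is the no-effect control and ±100 the full control effect; nearly all actives have a fitted effect of over 50% in size; the assay follows cell death caused by Vpr and the record does not say whether a fall means rescue or toxicity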
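Fission yeast RE007 carrying one integrated HIV-1 vpr copy, seeded at OD 0.01 in PMG+AL medium with 23 nL pinned compound. Grown 24 h at 30 degrees; viability read by BacTiter-Glo luminescence after 5 min.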
MARV entry inh: blocks Marburg virus binding to or entry into cells | Marburg virus pseudotyped entry inhibition, cell reporter; control for the full effect not named in the record; about a third of the inactives were read at about 46 µM | Potency, µM (highest dose often 37.8 µM), inactives show top-dose activity change, negative = inhibition, usual class: inhibitors | 300,000 tested, 1.8% active; active = well fitted inhibition curve with a large enough effect; inconclusive = small, poorly fitted or top-dose-only effect, or effect the other way; inactive = flat fitted curve, though single readings scatter; tested in HEK293 cells; about a fifth of its hits are not listed in these tables; further: on the % scale 0 is the no-effect control and ±100 the full control effect; luciferase read-out
Lassa entry inh: Lassa virus entry inhibition; Lassa virus pseudotype entry inhibition, cell reporter; control for the full effect not named in the record; Potency, µM (titrated, usually from 37.9 µM), for inactives: top-dose activity change, negative = inhibition, usual class: inhibitors; 300,000 tested, 1.2% active; AID 540256; active means well fitted inhibition curve with a large enough effect; inconclusive means small, poorly fitted or top-dose-only effect, or effect the other way; inactive means flat fitted curve, though single readings scatter; tested in HEK293 cells; further: on the % scale 0 is the no-effect control and ±100 the full control effect; nearly all actives have a fitted effect of over 50% in size; luciferase read-out
SARS PLpro yeast: inhibitors of SARS-CoV papain-like protease in yeast; S. cerevisiae expressing SARS-CoV PLpro, growth rescue; control for the full effect not named in the record; Potency, µM (series often up to 32.9 µM), inactives show at the top dose activity, positive = growth rescue; 330,000 tested, 0.19% active; active means well fitted rising curve with a large enough effect; inconclusive means small, poorly fitted or top-dose-only effect; inactive means no such curve, though single readings can be large or run the other way; further: 0% is about no effect; nearly all actives have a fitted effect of over 55% in size; growth read by luminescence after 48 h
Cruzain inh noDet: blocks cruzain activity in detergent-free assay; AID 1476; Potency, µM, inactives show max response, negative = inhibition, actives largely listed as inhibitors; P25779; purified cruzain, Z-FR-AMC fluorescence, no detergent; 200,000 tested, 2.3% active;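 further: plate controls were enzyme without inhibitor for no effect and buffer without enzyme for full effect; nearly all actives have a fitted effect of over 40% in size; top concentration of the series not given in the record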
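Detergent-free condition (0.00005% Triton X-100) in acetate buffer pH 5.5 with DTT. 1.5 nM enzyme and compound were pre-mixed 15 min, then 2 uM Z-FR-AMC substrate added; reaction progress from fluorescence change between first and third reads (60 s).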
An asterisk follows results filed as active; ? = inconclusive; nt = not tested or not shown; & = joins results of further samples; [ ] = remark or other dose. Unless noted, the call rests on the fitted dose curve; in most records, active means well fitted curve in the direction sought with a large enough effect; inconclusive means small, poorly fitted or top-dose-only effect, or another doubt; inactive means no such curve, though single readings can be large; an effect the other way counts as inactive or inconclusive. Potency means the concentration at half of the fitted maximal effect.

SMILES	2A StopGo	Cruzain inh Det	NS1 inh	RE007 growth inh	MARV entry inh	Lassa entry inh	SARS PLpro yeast	Cruzain inh noDet
COc1cccc(C2c3c(-c4ccccc4O)n[nH]c3C(=O)N2CCc2ccc(OC)c(OC)c2)c1 (stereo not drawn)	-8%	-9.7%	nt	nt	7.1µM*	?	nt	2%
COc1ccc(C(=O)OCC(=O)NC(=O)NCc2ccccc2)cc1[N+](=O)[O-]	-2%	nt	nt	-13%	-1%	?	-1%	nt
CCOc1ccc2nc(N(Cc3cccnc3)C(C)=O)sc2c1	28%	-0.4%	nt	nt	nt	17%[46.1 µM]	nt	2%
COc1ccc(CCNC(=O)CN(CCc2ccccc2)S(C)(=O)=O)cc1OC	1%	nt	nt	-5%	?	1%	0%	nt
CC(=O)N=c1c(C#N)cc2c(=O)n3ccccc3nc2n1CCCOC(C)C	-15%	nt	7%	-3%	2%	nt	0%	nt
O=c1[nH]c(-c2cccnc2)nc2sc(-c3ccccc3)cc12	28%	nt	3%	-13%	-21%	1%	2%	nt
Cc1cc(N2CCCC2=O)ccc1S(=O)(=O)NC1CCCCC1	-8%	nt	-16%	-20%	0%[46.1 µM]	-6%	3%	nt
COc1ccc(OC)c(CNC(=O)C2CCCN(S(=O)(=O)N3CCC(C)CC3)C2)c1 (stereo not drawn)	-17%	nt	-7%	-7%	nt	nt	30%	nt
Cc1ccc2nc(-c3ccncc3)[nH]c2c1	13%	nt	-18%	-5%	?	-14%[46.1 µM]	-4%	nt
CC(=O)c1ccc(NC(=O)CCC(=O)OCC(F)(F)C(F)F)cc1	14%	-1.5%	6%	-7%	1%	?	?	-2%
Cc1sc2nc(CSC(C)C(=O)NC3(C#N)CCCCC3)[nH]c(=O)c2c1C (stereo not drawn)	-11%	nt	nt	12%	13%[46.1 µM]	6%	-4%	nt
CCCOc1ccc(Oc2nc(NC)nc(N3CCOCC3)n2)nn1	-8%	4.6%	nt	nt	1%[46.1 µM]	18%[46.1 µM]	nt	7%
COc1ccc(CC(=O)Nc2nc(-c3ccc(OC)c(OC)c3)cs2)cc1OC	?	nt	-11%	-7%	?	?	-3%	nt
Cc1cccc(-c2n[nH]c(=S)n2Cc2ccccc2)c1	3%	-8.7%	-24%	7%	?	?	8.9µM*	-8%
COc1cccc(Cn2c(-c3nonc3NC(C)=O)nc3ccccc32)c1	-16%	-7.1%	nt	nt	?	-13%[46.1 µM]	nt	23%
CCOc1ccc(C2CC(=O)N(c3cccc(F)c3)C3=C2C(=O)OC3)cc1 (stereo not drawn)	-13%	-1.9%	nt	nt	5%[46.1 µM]	2%[46.1 µM]	nt	3%
Cc1nc(-c2ccc(S(=O)(=O)NCc3cccnc3)s2)cs1	-13%	nt	-3%	-10%	nt	nt	-2%	nt
O=C(CC1CCCCC1)N1CCC(c2nc(-c3ccc(S(=O)(=O)N4CCCC4)cc3)no2)CC1	-11%	-4.4%	10%	-8%	?	?	-9%	12%
O=C(N/N=C/C=C/c1ccco1)c1cnccn1	31%[activator]	nt	5%	5%	2%[46.1 µM]	-2%	-2%	nt
COc1ccc(C)c(-n2c(=O)n(Cc3ccccc3)c(=O)c3[nH]cnc32)c1	-11%	nt	0%	3%	nt	nt	-1%	nt
O=C(CSc1nnc(-c2ccccc2)c(-c2ccccc2)n1)N1CCc2ccccc21	8%	-0.1%	0%	19%	-27%	3%	-4%	?
CC(=NNc1ccc([N+](=O)[O-])cn1)c1ccc(N)cc1	0%	nt	nt	-26%	-12%	0%	nt	nt
O=C(COc1ccc(S(=O)(=O)N2CCCC2)cc1Cl)Nc1ccc2c(c1)OCO2	-17%	2.7%	3%	2%	-20%	-9%	5%	-9%
N=c1ccn(Cc2ccc(Cl)cc2Cl)cc1	?	1.4%	-1%	?	-12%	?	-5%	-11%
CCOc1ccc(/C=C/c2[nH]c(=O)[nH]c(=O)c2[N+](=O)[O-])cc1	-6%	nt	11%	-4%	?	16%	0%	nt
O=C1CNC(=O)/C(=C/c2ccco2)N1	31%[activator]	nt	nt	3%	10%[14.2 µM]	8%	0%	nt
CCN(CC)S(=O)(=O)c1ccc(NC(=O)CN(c2ccccc2)S(=O)(=O)N(C)C)cc1	-23%	-6.2%	nt	nt	-6%[46.1 µM]	?	nt	12%
CC(CCc1ccccc1)NC(=O)c1ccc(NC(=O)c2cccc(Br)c2)cc1 (stereo not drawn)	0%	-2.0%	-1%	6%	?	-12%	-10%	?
C=CCNC(=O)c1cccc(Br)c1	13%	8.4%	0%	-4%	?	3%	-2%	-4%
O=C1NCC(Nc2ccc(Br)cc2)C(=O)N1 (stereo not drawn)	-6%	nt	nt	0%	?	9%[46.1 µM]	nt	nt
CC1CC(C)(C)N(C(=O)CN2C(=O)c3ccccc3C2=O)c2ccccc21 (stereo not drawn)	nt	-6.1%	-12%	4%	-23%	-27%	7%	-4%
CCSc1nc2n(n1)C(c1ccc(CC)cc1)C(C(=O)Nc1ccccc1OC)=C(C)N2 (stereo not drawn)	-13%	2.3%	nt	nt	nt	14%[46.1 µM]	nt	12%
O=C(O)c1ccc(NS(=O)(=O)c2cccc(S(=O)(=O)c3ccc(Cl)c(Cl)c3)c2)cc1	-5%	nt	-5%	-13%	-15%[46.1 µM]	nt	-1%	nt
O=C(/C=C/c1ccccc1)CCN1CCCCC1	?	nt	nt	?	?	?	nt	nt
COc1cc2cc(C(=O)N3CCN(c4ccccc4OC)CC3)[nH]c2cc1OC	14%	nt	2%	11%	-5%[46.1 µM]	-15%	-2%	nt
S=C(NCc1cccnc1)Nc1ccc(Cl)cc1	24%	-3.7%	?	-10%	-19%	-4%	-2%	3%
C=C(C)CNC(=S)Nc1sc2c(c1C(=O)OCC)CC(C)(C)OC2	-8%	-12%	12%	-3%	4%	-9%	14%	-4%
CC(C)(Oc1ccc(Cl)cc1)C(=O)NCCCn1ccnc1	nt	0.7%	-10%	-19%	10%	6%	-5%	-1%
CCCCc1nc(SCC(=O)Nc2nnc(C(C)C)s2)n[nH]1	-13%	nt	5%	8%	6%	3%	-2%	nt
Cc1cc(NO)nc(-c2ccc(Br)cc2)n1	58%[activator]	-2.1%	-2%	-22%	-8%	?	0%	2%
CC1CC(C)CN(CC(=O)c2cccs2)C1 (stereo not drawn)	10%	nt	1%	-21%	0%	6%	0%	nt
CC(c1ccco1)N(C(=O)c1ccccc1NS(=O)(=O)c1cccc([N+](=O)[O-])c1)c1ccccn1 (stereo not drawn)	-23%	-6.4%	-47%	10%	-14%[46.1 µM]	?	-21%	-3%
CCOC(=O)N1CCC(NC(=O)c2ccc3c(c2)N=C(CC)c2ccccc2S3)CC1	-30%	nt	12%	7%	nt	nt	-11%	nt
Cc1cc(=O)[nH]c(SCc2ccc(Cl)cc2)n1	3%	nt	nt	4%	0%	0%	nt	nt
O=C(c1ccccc1Sc1ccc([N+](=O)[O-])cc1)N1CCCCC1	-4%	-6.6%	1%	-11%	?	3%	29%	13%
Cc1ccc(-c2cc(C(=O)Nc3sc4c(c3C(=O)NCc3ccco3)CCC4)[nH]n2)c(O)c1	25µM*	-6.8%	?	10%	1%	4%	-10%	-14%
Cc1ccc(CNC(=O)c2sc3nc(C)cc(C)c3c2-n2cccc2)cc1	-3%	-3.9%	nt	nt	0%[46.1 µM]	7%[46.1 µM]	nt	-6%
Cc1ccc(S(=O)(=O)Nc2ccccc2CNC2CCCCC2)cc1	10%	nt	nt	-5%	-3%[46.1 µM]	-4%[46.1 µM]	0%	nt
Cc1cc(S(=O)(=O)NCCN(C)C)c(C)s1	8%	6.5%	-4%	22%[3.69 µM]	-1%	4%	-9%	-4%
CCn1nc(C)c(CN2CCC(n3nccc3NC(=O)c3ccc4c(c3)OCO4)CC2)c1C	-9%	nt	6%	-9%	nt	nt	-1%	nt
Cc1ccc(-c2c[nH]c(=S)n2-c2ccccc2F)cc1	-10%	nt	-10%	-8%	6%[46.1 µM]	?	7%	nt
O=c1nc2c(-c3ccc(F)cc3Cl)n[nH]n2c2ccccc12	20%	1.7%	nt	nt	nt	21%[46.1 µM]	nt	-4%
COc1ccc(Nc2nc(Cl)nc(NCCO)n2)cc1	-7%	0.6%	18%	nt	-13%	18%	7%	12%
OCCn1c(CSc2nnc(-c3ccco3)n2-c2ccccc2)nc2ccc(Cl)cc21	-27%	-7.6%	-1%	7%	-15%&-15%	-4%	-1%	?
CN(Cc1ccco1)S(=O)(=O)c1csc(C(N)=O)c1	-4%	nt	10%	-4%	nt	nt	2%	nt
CCN(c1ccc(OC)cc1)S(=O)(=O)c1nnc(NC(=O)c2ccco2)s1	-4%	nt	5%	-5%	0%[46.1 µM]	-3%[46.1 µM]	-4%	nt
Cc1cccc(NC(=O)Cn2cnc3ccccc3c2=O)c1C	0%	4.8%	-2%	3%	3%	16%	nt	-3%
CCOc1nc(-c2ccc(OC)cc2)ccc1-c1noc(-c2cc(OC)c(OC)c(OC)c2)n1	?	0.6%	?	-10%	5%	3%	9%	9%
Cc1sc(C(=O)Nc2ccc3ccccc3c2)cc1CC(=O)O	67%[activator]	nt	nt	21%	3%[46.1 µM]	14%	-1%	nt
Cc1ccc(C)c(NC(=S)NCC(c2cccnc2)N2CCOCC2)c1 (stereo not drawn)	-11%	3.3%	2%	7%	-2%	12%	13%	8%

Additional records.
SMILES	2A StopGo	Cruzain inh Det	NS1 inh	RE007 growth inh	MARV entry inh	Lassa entry inh	SARS PLpro yeast	Cruzain inh noDet
Cc1ccccc1NC(=O)CC1S/C(=N/c2nccs2)N(C)C1=O (stereo not drawn)	-26%	1.9%	2%	-4%	-4%[46.1 µM]	?	4%	-6%
CN1CCN(CCC(=O)Nc2ccc(C3CCCC3)cc2)CC1	-13%	nt	0%	1%	nt	nt	-1%	nt
O=C(OCC#CCSc1nnc(-c2ccccc2)o1)c1cc2ccccc2o1	12%	-5.5%	10%	-23%	2%	1%	-12%	2%
NS(=O)(=O)c1cccc(NC(=O)Cn2cnc3ccccc3c2=O)c1	13%	6.2%	-6%	2%	8%	1%	2%	5%
CC(C)CNC(=O)COC(=O)CCC(=O)c1ccc(Cl)cc1	-3%	nt	nt	2%	?	1%[46.1 µM]	-7%	nt
